Source: PubChem BioAssay (ICCB-Longwood Screening Facility, Harvard Medical School)
GIV-Gai inh – blocks GIV peptide binding to rat Galpha-i3; Galpha-i3/FITC-GIV peptide fluorescence polarization, 90 min; active compounds read low; scaled: aluminum fluoride 0%, vehicle 100%; percent of control (FP), % (test concentration not listed); 0.42% of 210,000 active; AID 1224905;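 active means replicate mean at 85% of control or lower, very high polarization wells dropped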;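 further: lower values mean more displacement of the GIV peptide from Galpha-i3; wells of about 15 µL received 100 nL stock; the first replicate is given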
Target sequence (P08753 whole entry, looked up): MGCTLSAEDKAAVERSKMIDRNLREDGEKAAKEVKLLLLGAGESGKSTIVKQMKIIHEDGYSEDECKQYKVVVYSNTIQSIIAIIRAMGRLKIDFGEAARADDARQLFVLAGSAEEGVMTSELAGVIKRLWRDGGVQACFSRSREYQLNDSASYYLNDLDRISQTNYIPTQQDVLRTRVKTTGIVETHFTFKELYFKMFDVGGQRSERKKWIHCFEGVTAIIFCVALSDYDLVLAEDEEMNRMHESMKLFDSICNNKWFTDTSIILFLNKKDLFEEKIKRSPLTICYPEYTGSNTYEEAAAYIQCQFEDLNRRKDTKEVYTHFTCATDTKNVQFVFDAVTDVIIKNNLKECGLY
The depositor's hits bear a star. This is a subset; the hit share may differ from the screen's.

SMILES | GIV-Gai inh
Cc1cc(NC(=O)C2CCCN(S(=O)(=O)c3cc(-c4noc(C)n4)cs3)C2)no1 (centres undefined) | 102.4
COc1cc(C(=O)NC(c2ccccc2)c2cc(Cl)c3cccnc3c2O)cc(OC)c1OC (centres undefined) | 103.5
CCOC(=O)C1=C(C)NC2=C(C(=O)C(C(=O)OCC)C(c3ccccc3OC)C2)C1c1cccc(Br)c1 (centres undefined) | 96.2
CN(C)c1ccc2c3c(ccc(N(C)C)c13)C1(C(F)(F)F)OC2(C(F)(F)F)c2ccc(N(C)C)c3c(N(C)C)ccc1c23 | 106.2
CC1SC2(C(=O)N(CN3CCCCC3)c3ccccc32)N(c2cccc(Cl)c2)C1=O (centres undefined) | 109.7
CCCCCn1c(SCC(=O)CC(=O)OCC)nc2cc(C(=O)N3CCC(C(N)=O)CC3)ccc2c1=O | 109.6
Cn1cnc2cc(-c3noc(-c4ccc(Br)cc4)n3)ccc21 | 104.8
O=C(Nc1ccc(N2CCC(c3ccccc3)C2)c(C(=O)O)c1)c1ccc(Br)cc1 (centres undefined) | 105.5
NC1=NC2(O)c3ccccc3C(=O)C2(O)NN1 (centres undefined) | 76.4*
CCOC(=O)C1=NN(c2ccc(C)cc2)C2(S1)c1ccccc1C(c1ccc(Br)cc1)=NN2c1ccccc1 (centres undefined) | 107.7
Cc1cc2c(cc1CNC(=O)Cn1cc(C(=O)C(C)(C)C)c3ccccc31)OCCCO2 | 102.1
Cc1nnc2ccc(N3CCCC3)nn12 | 100.4
Cc1nc(CCNC(=O)[C@H]2CCCN2S(=O)(=O)c2ccc(C(C)(C)C)cc2)cs1 | 100.0
O=C(Nc1cc(C(=O)N2CCN(c3ccc(F)cc3)CC2)ccc1N1CC2CC(C1)c1cccc(=O)n1C2)c1cccs1 (centres undefined) | 111.0
O=C(O)c1cc(N2C(=O)/C(=C/c3ccc(-c4ccc(Cl)c(Cl)c4)o3)C=C2c2ccccc2)ccc1O | 133.1
CC1CCN(C(=O)Cn2nc3n(Cc4cccs4)c(=O)c4sccc4n3c2=O)CC1 | 100.4
CCOC(=O)N1CCN(C(=O)c2ccc(N3CC4CC(C3)c3cccc(=O)n3C4)c(NC(=O)/C=C/c3ccccc3)c2)CC1 (centres undefined) | 111.2
COc1cccc(C2Nc3ccc(F)cc3[C@H]3OCCC[C@@H]23)c1OC (some centres undefined) | 101.0
O=S(=O)(c1cccc(Cl)c1)N1CCn2cccc2C1c1ccccc1 (centres undefined) | 103.7
CCCOc1ccc(C2C(C(=O)OC)=CN(Cc3ccc(Cl)cc3)C=C2C(=O)OC)cc1OC | 104.4
O=C(c1ccc2c(=O)n(Cc3ccc4c(c3)OCO4)c(=S)[nH]c2c1)N1CCN(c2ncccn2)CC1 | 113.3
Cc1ccc(C2C3=C(CC(C)(C)CC3=O)Nc3ccccc3N2C(=O)CCC(=O)O)cc1 (centres undefined) | 105.7
O=C(Nc1cc(C(=O)N2CCN(Cc3ccccc3)CC2)ccc1N1CC2CC(C1)c1cccc(=O)n1C2)c1cccnc1 (centres undefined) | 111.6
CSCCC1(C(=O)O)NC(c2ccc(O)cc2O)C2C(=O)N(Cc3ccccc3)C(=O)C21 (centres undefined) | 107.3
COc1cc2cc(-c3ccccc3)nc(Cc3ccccc3)c2cc1OC | 119.4
COc1ccc(Cn2c(=S)[nH]c3cc(C(=O)Nc4ccc(OC)cc4OC)ccc3c2=O)cc1 | 117.5
CS(=O)(=O)Nc1ccc(C2(C(=O)NCc3ccc4c(c3)OCO4)CCCCC2)cc1 | 97.2
CCC(=O)N1CCc2cc(N3CC(C(=O)N4CCN(C)CC4)CC3=O)ccc21 (centres undefined) | 101.5
Cc1cc(C)c(C#N)c(SCC(O)CS(=O)(=O)Cc2ccc(Cl)cc2)n1 (centres undefined) | 100.9
CCN1C(=O)c2ccccc2Sc2cc(-c3noc(-c4ccnn4C)n3)ccc21 | 98.4
COc1ccc(C2=C(Nc3ccc(C(N)=O)cc3)c3ccccc3C2=O)cc1 | 109.3
CCCCNC(=O)C1CCN(c2nc(NC(C)=O)c(C(=O)N3CCCC3)s2)CC1 | 99.9
COc1cn(CC(=O)Nc2cc(C)on2)c(CN2CCOCC2)cc1=O | 100.8
Nc1c(C(=O)Nc2ccc(F)cc2)sc(=S)n1-c1ccco1 | 108.8
O=C(CSc1nc(NCc2ccco2)c2ccccc2n1)c1ccccc1 | 103.4
O=S(=O)(c1ccc2c(c1)OCCO2)N1CCN(c2ncnc3c2nnn3Cc2ccccc2)CC1 | 102.6
COC(=O)C1=NN(c2ccc(OC)cc2)C2(Nc3ccccc3S2)S1 (centres undefined) | 120.8
CCOC(=O)c1ccc(-n2[nH]c(C(F)(F)F)c(/C=C3\C=Nc4ccccc43)c2=O)cc1 | 97.5
CCN(CC)c1ccc(NC(=O)CN2C(=O)CC(c3ccc(C)cc3)=Nc3cccnc32)c(C)c1 | 106.2
CCOc1ccccc1N/C(SCc1ccc(C)cc1C)=C(/C#N)C(=O)NCc1ccccc1 | 106.6
Cc1cc(C2CCCN2C(=O)c2c(C)noc2C)no1 (centres undefined) | 101.4
Oc1ccc(C2Nc3cccc4cccc(c34)N2)cc1 | 122.1
O=C(CSc1nc(NCc2ccc(Cl)cc2)c2ccccc2n1)Nc1nccs1 | 115.0
COc1ccc(C)cc1NS(=O)(=O)c1cc(-c2nc(C)c(C)s2)sc1C | 104.5
O=C(Nc1ccc(C(=O)Oc2ccccc2)cc1)c1ccc(Br)c(S(=O)(=O)N2CCCCC2)c1 | 102.5
COc1ccc(-c2[nH]nc3c2C(c2ccc(OC(=O)N4CCOCC4)cc2)C(C#N)=C(N)O3)cc1 (centres undefined) | 102.0
Cc1cc(C)cc(N(Cc2nnc3n2CCCCC3)C(=O)Nc2ccccc2)c1 | 100.3
COc1cc(/C=C\C(=O)Nc2c3c(nn2-c2ccc(F)cc2)CS(=O)(=O)C3)cc(OC)c1OC | 106.5
O=C(O)CCCN1C(=O)/C(=C2/C(=O)N(CC(=O)O)c3ccc(Br)cc32)SC1=S | 103.5
CC(C)(C)c1ccc(N2C(=O)/C(=C/c3ccc(-c4cc(Cl)ccc4Cl)o3)C=C2c2ccccc2)cc1 | 102.3
CS(=O)(=O)N1CCCN(C(=O)C2CCCC2)CC1 | 101.0
CCc1nn2c(c1-c1ccc(OC)c(S(=O)(=O)NC3CC3)c1)NC(=O)CCC2=O | 103.7
CC(C)c1ccc2nc(-c3cccc(NC(=O)C4CC4)c3)ccc2c1 | 106.0
CCN1C(=O)/C(=C2/Sc3ccc(Cl)cc3N2C)SC1=S | 104.5
Cc1sc(-c2nc(-c3ccc(F)cc3)no2)cc1S(=O)(=O)NCCN1CCCC1 | 102.8
CC(=O)C1=C(C)N=c2s/c(=C/c3ccc(-c4ccc([N+](=O)[O-])cc4)o3)c(=O)n2C1c1ccc(N(C)C)cc1 (centres undefined) | 105.4
CC(=O)c1oc2ccc3c(C)cc(=O)oc3c2c1C | 102.3
CCN1C(=O)c2cccc3c(NC(=O)c4ccc(S(=O)(=O)N5CC(C)CC(C)C5)cc4)ccc1c23 (centres undefined) | 118.9
COc1cc(NC(=O)c2ccc3c(=O)n(-c4ccc(F)cc4)c(=S)[nH]c3c2)cc(OC)c1OC | 108.7
COc1ccc(CNc2c(C(=O)Nc3cc(C)ccc3C)cnc3c2c(C)nn3-c2ccccc2)cc1 | 112.7

Next compounds
SMILES | GIV-Gai inh
Cc1cc(N2C(=O)C(N3C(=O)c4ccc([N+](=O)[O-])cc4C3=O)C2c2cccs2)ccc1Br (centres undefined) | 111.8
COc1ccc(NC(=O)c2sc3ncn(CC(=O)Nc4ccc(C)c(Cl)c4)c(=O)c3c2C)cc1OC | 103.4
O=C(CSc1nc2[nH]ncc2c(=O)n1-c1cccc2ccccc12)Nc1ccc(Cl)cc1 | 106.7
COc1ccccc1NC(=O)c1c(NC(=O)C(C)(C)C)sc2c1CCC2 | 106.3
CC(C)(C)c1csc(-c2csc(S(=O)(=O)NCc3cccs3)c2)n1 | 105.8
O=C(Nc1ccc(F)cc1)C1CCC(Cn2c(=S)[nH]c3ccccc3c2=O)CC1 (centres undefined) | 100.9
CC1(C(=O)NCc2ccc(F)cc2)CCCN(S(=O)(=O)c2ccc(Br)cc2)C1 (centres undefined) | 102.6
Cn1c(SCC(=O)OC(C)(C)C)nc2cc(-c3ccccc3)sc2c1=O | 105.4
Cc1ccc(-c2cc3nc(C)cc(N4CCC(C(=O)Nc5ccc(Cl)cc5)CC4)n3n2)cc1 | 104.0
COc1cc(NC(=O)N2CCCCCC2c2cccs2)cc(OC)c1OC (centres undefined) | 103.0
CC(C)CN1C(=O)N(c2ccc(Cl)c(Cl)c2)C(n2oc(=O)n(-c3ccc(Cl)c(Cl)c3)c2=O)C1(C)C (centres undefined) | 111.0
CCOC(=O)N1CCN(C(=O)/C(=C\c2cccs2)NC(=O)c2ccc(OC)c(OC)c2)CC1 | 102.1
Cc1noc(C)c1CCNC(=O)c1cc2c(-c3ccc(Cl)cc3)nn(C)c2s1 | 101.1
O=C(O)CCN1C(=O)/C(=C2/C(=O)N(CC(=O)O)c3ccc(Br)cc32)SC1=S | 104.8
COc1ccc(C(c2c(C)n(C)n(-c3ccccc3)c2=O)c2c(C)n(C)n(-c3ccccc3)c2=O)cc1Br | 102.3
COc1ccc(C2C(C#N)=C(SCC(=O)Nc3ccccc3C)NC3=C2C(=O)CC(C)(C)C3)cc1 (centres undefined) | 110.8
Cc1ccccc1-n1c(=S)sc2c1nc(SCC(=O)C(C)(C)C)n1c3ccccc3nc21 | 102.7
COc1ccc(C2(O)CN(c3ccccc3)C3=[N+]2CCCC3)c(F)c1 (centres undefined) | 101.8
O=C(CSc1nc2ccccc2c(=O)n1CC1CCC(C(=O)NCc2ccco2)CC1)NCc1ccccc1 (centres undefined) | 109.2
O=C(C1=CN(c2ccc3c(c2)OCO3)c2cc(Cl)ccc2S1(=O)=O)N1CCCC1 | 100.7
COc1ccc(C2CC(c3ccco3)=Nc3ccccc3S2)cc1 (centres undefined) | 108.5
CN1C(=O)c2ccccc2Sc2cc(-c3noc(CNC(=O)Cc4ccc(Cl)cc4)n3)ccc21 | 99.0
CN(Cc1ccccc1)S(=O)(=O)c1ccc(N2CCOCC2)c(C(=O)NC2CCN(Cc3ccccc3)CC2)c1 | 102.1
COCCCNC(=O)CN1c2ccccc2NC2=C(C(=O)CC(C)(C)C2)C1c1ccccc1 (centres undefined) | 104.0
Cc1cc(C)c(NS(=O)(=O)c2ccc(NC(=O)c3sc4ccccc4c3Cl)cc2)c(C)c1 | 106.7
COc1ccc(OC)c(NC(=O)N2CCc3c(c(-c4nnc(-c5ccc(F)cc5)o4)nn3C)C2)c1 | 106.4
O=c1ccn(-c2ccccc2)nc1-c1nc(-c2ccccn2)no1 | 100.1
CCOc1cc(C(=O)Nc2nnc(SCC(=O)Nc3nnc(C(C)C)s3)s2)cc(OCC)c1OCC | 114.7
O=C(Nc1ccc2c(c1)Sc1ccccc1C(=O)N2C1CCCC1)c1cnccn1 | 105.9
CCS(=O)(=O)NC1CCN(C2=NS(=O)(=O)C(c3ccc(C)cc3)=C2C)CC1 | 105.9
CCc1ccc(-c2[nH]c3ccccc3c2NC(=O)Nc2ccccc2)cc1 | 102.8
CC1=NOC(C)(CNC(=O)NC(C)(C)C)C1 (centres undefined) | 97.4
COCCNC(=O)N1CCCN(c2nc3cc(F)ccc3n3cccc23)CC1 | 100.9
CCCCNC(=O)c1cccnc1SCC(=O)Nc1ccccc1OC | 113.9
Cn1c(=O)c2c(nc(N3CCCCCC3)n2CC(=O)c2ccc(Br)cc2)n(C)c1=O | 108.5
CC(=O)c1ccc(NC(=O)CSc2nc3ccc(NC(=O)c4ccc(C)cc4)cc3s2)cc1 | 108.0
CCN(c1ccccc1)S(=O)(=O)c1cc(C(=O)Nc2ccccc2Cl)ccc1F | 107.5
CCc1cc2c(N3CCCC(C(=O)NC4CCCCC4)C3)ncnc2s1 (centres undefined) | 103.6
O=C(Nc1ccc2c(c1)OCCO2)C1CCN(c2ncnc3onc(-c4ccc(F)cc4)c23)CC1 | 101.5
CC1(C)CC(=O)C2=C(C1)OC1=C(C(=O)CC(C)(C)C1)C2c1ccc(-c2ccc(Cl)cc2Cl)o1 | 104.5
Cc1ccccc1N/C(SCc1ccc(Cl)cc1)=C(/C#N)C(=O)NCc1cccs1 | 107.1
O=C(NCCc1c[nH]c2ccccc12)c1cc2n(n1)C(C(F)(F)F)CC(c1ccc(Cl)cc1)N2 (centres undefined) | 103.8
